# Screens deposited in PubChem BioAssay by several laboratories.
# RanGTP-Impb inh – disruptors of Ran-importin-beta complex formation – biochemical, FRET, CFP-Ran, YFP-importin-beta, homogeneous, primary screen. cell-free CFP-Ran/YFP-importin-beta FRET ratio. inhibition, % (concentration not given with the values). actives 1.1% (n = 300,000);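 active = most replicates above 15%; inconclusive = exactly half above 15%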;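 note: 0% = DMSO wells and 100% = Ran loaded with GDP instead of GTP; wells of about 40 µL received 100 nL stock; the first replicate is given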
# Calb FLC – affects C. albicans growth with fluconazole. AID 1979. actives 0.57% (n = 300,000). growth inhibition, % (test concentration not listed). C. albicans CaCi-2 (fluconazole-resistant clinical isolate) + fluconazole, Alamar Blue growth, 48 h;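 active = most replicates above 75%; inconclusive = exactly half above 75%; inactive = most below 75%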;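 note: all wells also contain fluconazole at 8 µg/ml as a sub-toxic cotreatment; 0% = median of DMSO wells and 100% = median of geldanamycin control wells; wells of about 8 µL received 7.5 nL stock; the first replicate is given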
# MLL AF4-AF9 inh – MLL-AF4/AF9 protein interaction inhibition | AlphaScreen, biotin-AF4 peptide binding to FLAG-AF9 | P42568 | actives 0.47% (n = 350,000) | inhibition, % at 10 µM;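 active = every replicate reaching a set inhibition limit, whatever the replicate mean, cut at about 25% in these data; inconclusive = mean inhibition reaches that limit but some replicates miss it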;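 note: 0% = plate neutral control median and 100% = total signal loss; the record names both 10 and 1 µM as test concentration; the first replicate is given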
# Target sequence (P42568 whole entry, looked up): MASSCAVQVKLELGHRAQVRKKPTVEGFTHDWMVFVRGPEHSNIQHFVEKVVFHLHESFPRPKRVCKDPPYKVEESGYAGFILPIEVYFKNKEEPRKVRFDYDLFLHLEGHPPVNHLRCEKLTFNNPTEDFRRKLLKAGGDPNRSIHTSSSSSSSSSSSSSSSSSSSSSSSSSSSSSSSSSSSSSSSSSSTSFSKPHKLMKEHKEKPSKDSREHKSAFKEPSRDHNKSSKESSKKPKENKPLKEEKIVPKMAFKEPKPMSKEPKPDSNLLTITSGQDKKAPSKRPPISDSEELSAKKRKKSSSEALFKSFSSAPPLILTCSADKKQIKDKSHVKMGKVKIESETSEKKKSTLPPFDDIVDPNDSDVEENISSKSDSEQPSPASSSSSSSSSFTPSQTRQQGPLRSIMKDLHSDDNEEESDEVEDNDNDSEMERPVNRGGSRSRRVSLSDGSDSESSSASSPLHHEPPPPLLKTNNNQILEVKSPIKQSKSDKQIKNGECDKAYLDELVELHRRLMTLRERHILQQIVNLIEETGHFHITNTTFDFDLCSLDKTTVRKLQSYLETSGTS
# rRNA inh HTS – selective bacterial rRNA inhibition in E. coli; E. coli WT GFP vs humanized-ribosome RFP mutants, fluorescence, 24 h; stronger effect = lower value; DMSO median 0, no signal -100; GFP signal change (wild-type ribosome), % (test concentration not listed); actives 1.6% (n = 350,000); AID 720706;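 active = significant combined selectivity score with lowered wild-type GFP, culture density cut under 30%, mutant RFP and density less affected; inactive = any of these conditions unmet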; note: one replicate is shown; some compounds called inactive have numbers as strong as hits
# Bfl-1 A1 inh – inhibitors of the anti-apoptotic protein A1, read as caspase activation. MEF A1-2A-BIM cells, Caspase-Glo 3/7 luminescence, 3 h; percent of clofoctol response, vehicle zero. caspase activation, % (no concentration beside the values). actives 0.066% (n = 330,000);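 active = over half of replicate activation scores above 10%, or exactly half above 10 with the replicate mean above 10; inconclusive = replicate mean below 10 yet half the replicates above 10; inactive = over half of replicates below 10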;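 note: wells of about 30 µL received 50 nL stock; many hits fall short of the cut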
# T cruzi inh – T. cruzi replication inhibition; T. cruzi beta-gal in NIH3T3, luminescence, 90 h; inhibition, % (test concentration not listed); actives 1.4% (n = 300,000);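 active = mean inhibition across valid replicates above about 55%, limit read from the data; inconclusive = mean below that limit but half or more replicates reach it; inactive = mean below it, under half of replicates reach it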;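 note: signal also drops with host cell toxicity which is not excluded here; 0% = plate median of DMSO wells and 100% = zero luminescence signal; higher percent means less beta-gal luminescence so fewer parasites; stock transfer was 50 nL into about 50 µL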
# Vif A3G – HIV-1 Vif–A3G interaction blockers – biochemical, TR-FRET, GST-Vif 1-94, biotin-A3G peptide, dose response retest, primary screen (AID 1117319); actives 0.57% (n = 260,000); inhibition, %; hits with a dose series show IC50 in µM; TR-FRET GST-Vif / biotin-A3G peptide binding; higher % means a stronger effect; test concentration not given here; strong numbers were not always called active;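 active = above the screen mean plus three standard deviations and confirmed in dose response; inconclusive = results disagree or hit not tested in dose response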;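 note: Vif residues 1-94 fused to GST binding biotinylated APOBEC3G peptide 110-148; 0% = full assay without inhibitor and 100% = GST in place of GST-Vif; retest series ran down from 100 µM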
# Beta apoptosis – blocks beta cell apoptosis; INS-1E cytokine-induced death, ATP luminescence, 48 h; percent of positive-control rescue, neutral wells zero; protection from apoptosis, % (concentration not given with the values); actives 0.8% (n = 300,000); AID 435005;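 active = all replicates at 75% or more, or half of them and the mean; inconclusive = half reach 75% but not the mean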;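 note: 0% = cytokine-treated negative control wells and 100% = positive control rescue; higher means more ATP so stronger rescue from cytokine killing; wells of about 40 µL received 100 nL stock; the first replicate is given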
# rRNA inh HTS OD600 – recorded beside rRNA inh HTS, whose call it bears; OD600 change, %; measured here: OD600 growth;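 optical density of the mix in the first replicate; 0 = DMSO median and -100 = no signal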
# rRNA inh HTS RFP – second read-out of rRNA inh HTS, no call of its own (marks repeat the call); RFP signal change, %; measured here: RFP humanized mutant strains;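 first replicate; 0 = DMSO median and -100 = no signal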
# An asterisk follows results filed as active; ? = inconclusive; . = not tested or not shown. The list is partial. The share of hits here may be higher or lower than overall.
SMILES,RanGTP-Impb inh,Calb FLC,MLL AF4-AF9 inh,rRNA inh HTS,rRNA inh HTS OD600,rRNA inh HTS RFP,Bfl-1 A1 inh,T cruzi inh,Vif A3G,Beta apoptosis
O=C(CCNc1cccc(Cl)c1)c1ccco1,-0.4,2.3,.,.,.,.,-0.5,-3.1,23.7%,-9.6
O=C(Nc1ccc(NC(=O)c2cccs2)cn1)c1ccccc1,4.4,7.2,-0.6,.,.,.,-7.7,-7.7,8.7%,6.4
CC1(C)C(=O)Nc2ccccc2N1C(=O)COC(=O)c1cccc(O)c1,.,.,-5.3,-0.1,-4.9,-0.8,-1.3,.,.,-4.2
O=C(CNc1ccc2ccccc2c1)N/N=C/c1ccccn1,4.2,12.2,1.4,-33.0,-28.5,-1.5,-0.5,-2.7,1.1%,.
COc1ccc(NC(=O)NC2(C(=O)N3CCCC(C)C3)CCCCC2)cc1 (stereo unspecified),0.7,-5.6,-1.1,2.6,13.3,0.4,0.5,-4.3,.,4.0
CN(C(=O)COC(=O)C1COc2ccccc2O1)c1c(N)n(Cc2ccccc2)c(=O)[nH]c1=O (stereo unspecified),-2.3,5.7,-2.1,-3.2,6.0,-0.9,0.0,-6.9,1.9%,-2.4
Cc1nn(-c2ccccc2)c(C)c1NC(=O)COC(=O)c1ccccc1,.,.,-6.0,11.4,6.6,2.3,1.1,.,.,2.0
COc1ccc(CCC(=O)OCC(=O)NCc2ccc3c(c2)OCO3)cc1,.,.,-1.1,-1.6,-3.0,-1.2,-1.3,.,-11.0%,-6.8
COc1ccc(CNC(=O)N2CCN(c3cccc(C)c3C)CC2)cc1OC,3.0,6.1,0.7,-0.5,-21.9,4.6,0.0,7.0,.,-1.3
CC(OC(=O)CN1C(=O)NC2(CCCC2)C1=O)C(=O)Nc1cccc(Cl)c1Cl (stereo unspecified),-0.7,-7.3,0.6,2.0,4.2,-0.3,0.1,0.0,-0.6%,-7.8
CC(Oc1ccc(F)cc1)C(=O)Nc1ccccc1C(=O)NC1CC1 (stereo unspecified),-6.0,-12.2,-0.4,-5.6,-6.7,-2.2,0.0,-2.3,8.8%,-10.4
O=S(=O)(NCC1CCN(c2ccc(S(=O)(=O)N3CCOCC3)cc2)CC1)c1ccccc1,-4.1,-5.3,0.4,-5.4,-13.0,-0.1,.,29.7,.,.

# In another format: results already given.
compound | RanGTP-Impb inh | Calb FLC | MLL AF4-AF9 inh | rRNA inh HTS | rRNA inh HTS OD600 | rRNA inh HTS RFP | Bfl-1 A1 inh | T cruzi inh | Vif A3G | Beta apoptosis
O=C(CNc1ccc2ccccc2c1)N/N=C/c1ccccn1 | 4.2 | 12.2 | 1.4 | -33.0 | -28.5 | -1.5 | -0.5 | -2.7 | 1.1% | .
COc1ccc(NC(=O)NC2(C(=O)N3CCCC(C)C3)CCCCC2)cc1 (stereo unspecified) | 0.7 | -5.6 | -1.1 | 2.6 | 13.3 | 0.4 | 0.5 | -4.3 | . | 4.0

# The listing continues:
SMILES,RanGTP-Impb inh,Calb FLC,MLL AF4-AF9 inh,rRNA inh HTS,rRNA inh HTS OD600,rRNA inh HTS RFP,Bfl-1 A1 inh,T cruzi inh,Vif A3G,Beta apoptosis
O=C(COc1ccc(Cl)cc1Cl)N/N=C/C1CC=CCC1 (stereo unspecified),8.4,-15.7,-3.7,1.9,0.2,-0.3,0.2,-3.8,-2.4%,-0.9
CCCOc1ccc(C(=O)N2CC3(CC(c4cccc(NC(=O)[C@@H]5CCC(=O)N5)c4)=NO3)C[C@H]2C(=O)NC2(C(N)=O)CC2)cc1 (stereo partly specified),1.2,3.5,0.2,-1.5,-1.7,-6.2,0.0,-10.0,0.5%,0.6
NC(=O)c1cc(S(=O)(=O)N2CCCC2)ccc1OCCOc1ccccc1,.,.,2.6,-6.5,-2.0,0.1,1.1,.,3.4%,0.1
COCCn1c(-c2cccs2)csc1=Nc1cccnc1,3.4,9.5,7.7,0.3,8.8,2.8,0.9,7.2,17.2%,-0.6
COC(=O)c1cc(=O)n(CCc2ccc(OC)cc2)c(=Nc2ccc(F)c(Cl)c2)s1,-2.5,-1.7,-9.7,0.9,9.2,-2.4,1.3,42.4,16.4%,52.7
CCn1c(-c2ccc(OC)c(OC)c2)n[nH]c1=S,-1.1,-0.9,.,.,.,.,-0.9,1.8,0.4%,.
COc1ccc(NC(=O)COC(=O)C2CCN(S(=O)(=O)c3ccccc3)CC2)cc1Cl,-3.5,8.2,2.7,-0.3,-2.3,-1.7,0.1,12.5,2.5%,-3.4
COCCOc1ccc(C(F)(F)F)cc1NC(=O)CN1C(=O)NC(C)(c2ccc3c(c2)OCO3)C1=O (stereo unspecified),.,-5.4,-2.1,-15.1,-22.8,-6.5,0.2,6.6,-0.8%,1.6
COc1ccccc1NC(=O)Nc1nn(C)c2cccc(OC)c12,-1.8,27.0,-3.9,-9.6,2.5,1.6,0.1,.,1.8%,.
CCOC(=O)CC1C(=O)NCCN1C(=O)NC1CCCCC1 (stereo unspecified),-1.9,-12.8,.,.,.,.,-0.1,-21.9,3.4%,-1.9
Cc1ccc(C)c(-n2cc(-c3ccc(Cl)cc3)nc2SCC(=O)NC2CCS(=O)(=O)C2)c1 (stereo unspecified),1.2,-1.5,.,.,.,.,0.5,-0.7,?,-4.9
CCCCN1C2=NCCCN2c2cc(C)c(C)cc21,-4.1,-20.0,.,.,.,.,-0.5,-14.9,4.7%,7.3
Cc1noc(C)c1COC(=O)c1ccc2c(c1)OCO2,0.3,-1.7,.,.,.,.,0.9,-0.4,-7.5%,-1.5
COC(=O)c1ccccc1NC(=O)CSc1n[nH]c(-c2cccnc2)n1,0.4,23.5,-2.8,3.5,-17.2,2.1,-1.1,-5.9,4.5%,5.0
CCOC(=O)c1ccc(Nc2ncnc3ccccc23)cc1,?,1.1,-2.3,9.5,-0.2,1.5,-0.3,-7.9,-3.4%,12.8
COCc1cc(/C=N\NC(=O)Cc2ccc(OC)cc2)ccc1OC,-2.2,4.4,2.5,4.3,5.5,-3.1,0.7,0.5,1.2%,-5.4
CCOC(=O)C1CCCN(S(=O)(=O)c2ccc(Br)s2)C1 (stereo unspecified),-1.8,3.1,.,.,.,.,0.6,13.9,-2.0%,-3.0
COc1cc2cc(C#N)c(SCC(=O)N3CCOCC3)nc2cc1OC,-2.6,30.8,.,.,.,.,0.2,-1.3,-1.6%,5.0
CC(=O)c1ccc(NC(=O)C2CCCN(S(=O)(=O)c3c(C)[nH]c(=O)[nH]c3=O)C2)cc1 (stereo unspecified),-3.0,-4.2,-1.7,8.5,12.7,2.3,-0.2,-11.6,19.0%,-0.1
O=[N+]([O-])c1cc(Cl)ccc1N1CCN(c2ccccc2O)CC1,-1.1,38.0,10.4,-53.3,-79.3,-17.5,-0.1,24.7,0.8%,7.1
O=[N+]([O-])c1cc(C=Nc2cccc3c(O)cccc23)ccc1Cl,3.9,-4.2,.,.,.,.,0.3,11.5,.,25.9
COc1ccc(-n2cnnc2SCC(=O)N(C)C2CCS(=O)(=O)C2)cc1 (stereo unspecified),-4.4,-8.0,.,.,.,.,-0.6,-13.5,5.5%,-10.8
O=C(CS(=O)(=O)c1cccc(Cl)c1)Nc1ccccc1Cl,-0.4,9.5,.,.,.,.,-0.5,1.7,4.1%,-6.7
CCOC(=O)c1oc2c(CN3CCN(CCO)CC3)c(O)c(CC)cc2c(=O)c1-c1nc2ccccc2s1,16.5*,25.0,4.8,2.7,-1.2,2.1,-1.7,16.1,?,-7.3
C/C(=N\NC(=O)c1ccc(N(C)C)cc1)c1cccnc1,0.6,0.6,2.3,7.2,0.9,0.5,0.1,7.7,-8.1%,-1.6
CCOC(=O)C(C)Sc1nc(=O)n2cccc(C)c2n1 (stereo unspecified),-5.4,-18.9,-0.8,1.7,7.6,2.4,-0.1,-10.5,1.8%,.
C=CCC(O)c1c(-c2ccccc2)nn(C)c1Cl (stereo unspecified),-1.8,48.1,-0.9,5.1,-2.3,-3.4,0.4,6.0,?,-11.5
O=C(CSc1nnc(CNC(=O)c2ccc(F)cc2)o1)NCC1CCCO1 (stereo unspecified),5.8,-2.5,-1.3,1.7,16.4,1.3,1.7,-11.2,-0.8%,.
Brc1ccc(C2=Nc3ccccc3C(c3ccncc3)=NN2)cc1,4.1,-9.6,6.5,-13.5,4.9,-4.0,-0.4,23.9,.,3.5
Cc1cccc(NC(=O)c2ccc(S(=O)(=O)N3CCCCC3)cc2)c1,2.4,-5.1,1.5,-27.4,-24.5,-11.0,0.0,-6.5,4.4%,-11.5
O=C1/C(=C\c2cccc(O)c2)SC(=S)N1Cc1ccccc1,2.4,5.7,11.0,-20.0*,-10.4*,0.2*,0.1,9.0,.,-5.8
CN(C(=O)COC(=O)CNC(=O)C12CC3CC(CC(C3)C1)C2)C1CCS(=O)(=O)C1 (stereo unspecified),-0.8,-0.8,.,.,.,.,-0.1,-6.2,19.1%,-8.5
Cc1cc2occ(CC(=O)NNC(=O)c3ccccc3)c2cc1C,2.1,0.3,-3.8,-6.8,-7.5,0.9,-0.3,-5.7,.,5.9
CC1CCCN(S(=O)(=O)c2ccc(NC(=O)CN3CCN(C)CC3)cc2)C1 (stereo unspecified),3.1,?,.,.,.,.,-0.5,42.3,7.8%,-4.7
CCC(=O)Nc1ccc(OC)cc1OC,2.0,-16.0,.,.,.,.,1.5,-6.3,7.2%,-3.0
CC(C)(C)NC(=O)NC(=O)CN1CCN(S(=O)(=O)c2ccc3c(c2)CCCC3)CC1,-0.9,-14.1,2.0,0.1,3.0,-1.8,0.4,45.4,-2.5%,-1.2
CC(C)c1nnc(NC(=O)CCCCCN2C(=O)C3C4C=CC(C4)C3C2=O)s1 (stereo unspecified),0.7,-10.1,-4.3,4.3,5.5,0.1,0.6,-7.0,5.3%,-2.2
CC(C)CCN1CCN(C2CCN(c3ccccc3)CC2)CC1CCO (stereo unspecified),-24.2,-9.9,2.3,21.5,4.7,0.4,0.4,12.7,5.8%,0.4
COC(=O)C1=C(C)N(CCCC(=O)O)C(=O)NC1c1cc2c(cc1[N+](=O)[O-])OCO2 (stereo unspecified),-3.1,-21.4,-91.7,7.5,7.7,-0.9,0.7,-22.6,.,-4.5
O=C(c1ccc(NS(=O)(=O)c2cccc([N+](=O)[O-])c2)cc1)N1CCN(C(=O)c2ccco2)CC1,.,.,0.1,-18.2,-14.0,-1.8,-0.9,.,-2.9%,-5.5
COCCn1c(SCC(=O)NN2C(=O)NC(C)(c3ccccc3)C2=O)nnc1-c1ccncc1 (stereo unspecified),.,.,-2.3,6.1,10.0,-2.2,0.8,.,-5.0%,-7.0
O=C(CNc1ccccc1Cl)c1ccc(Br)cc1,-2.6,0.3,2.6,3.8,1.4,-2.4,-0.6,3.6,.,.
CCOC(=O)Nc1ccc2nc(Sc3ccc(Cl)cc3)sc2c1,4.9,2.4,-0.7,-11.0,-30.2,-18.0,0.2,33.5,23.3%,20.2
